# Assay outcomes (PubChem)
# VACV mCherry inh = vaccinia inhibition (mCherry reporter); Vaccinia virus mCherry reporter infection, fluorescence; about a quarter of the inactives have no number; Potency, µM (doses to about 36.5 µM), for the others: top-dose activity change, negative = inhibition, hits mostly inhibitors; hit rate 0.63% among 310,000; active = well fitted inhibition curve with a large enough effect; inconclusive = small, poorly fitted or top-dose-only effect; inactive = no such curve, though single readings can be large or run the other way; tested in A549 cells; also: nearly all actives have a fitted effect of over 35% in size; inactives centre near -10
# Vaccinia Venus = inhibitors of vaccinia virus (Venus reporter). Vaccinia virus Venus reporter expression, fluorescence. Potency, µM (doses to about 36.5 µM), without a hit: at the highest dose activity change, negative = inhibition, actives largely listed as inhibitors. hit rate 0.46% among 330,000. AID 720580; active means well fitted inhibition curve with a large enough effect; inconclusive means small, poorly fitted or top-dose-only effect; inactive means no such curve, though single readings can be large or run the other way; tested in A549 cells; also: nearly all actives have a fitted effect of over 30% in size; inactives centre near -10
# * = called active by the depositor; i = inactive; ? = inconclusive; . = not tested or not shown; [ ] = another dose, or the depositor's remark. % is scaled to controls: 0 for no effect and ±100 for the full control effect; potency is read from the fitted curve at half-maximal effect.
SMILES,VACV mCherry inh,Vaccinia Venus
C#CCN(C[C@@H](CC(C)C)NC(=O)OC(C)(C)C)S(=O)(=O)c1ccc(Br)cc1F,?,-2%
COc1ccc(C(=O)Nc2nccs2)cc1OC,-7%,3%
C=CCNCCCCOc1ccccc1,-1%,-12%
COc1ccc(NC(=O)CCNC(=O)c2ccco2)cc1Cl,0%,-4%
CCN(CC)C(=O)Cn1cc(C(=O)C(=O)N2CCCc3ccccc32)c2ccccc21,i,-13%
Cc1ccc(C)c(NC(=S)NCc2cccs2)c1,-8%,-5%
CCOC(=O)CNc1ncnc2nc[nH]c12,-12%,1%
COc1cc(CN2C[C@@H](CO)O[C@@H](n3cnc4c(NCc5ccc(F)cc5)ncnc43)C2)cc(OC)c1OC,3%,-5%
COc1ccc(NC(C)=O)cc1NS(=O)(=O)c1cn(C)c(=O)n(C)c1=O,i,3%
CCOC(=O)c1ccc(NS(=O)(=O)N2CCCCCC2)cc1,.,-18%
CC(=O)NNC(=O)CCn1nnc2ccccc21,6%,-2%
O=C(Cn1cc2ccccc2n1)N1CCOc2ccc(C(O)C3CCCCC3)cc2C1 (centres undefined),-21%,-8%
Cc1ccc(N(CC(=O)Nc2ccc3c(c2)OCCO3)S(=O)(=O)c2c(C)noc2C)cc1,-3%,-22%
CC(C)[C@H](NC(N)=O)C(=O)Nc1ccc(OCc2ccccc2)cc1,1%,0%
CN1CCN(c2ccc(S(=O)(=O)N3CCCCC3)cc2NC(=O)Cc2ccccc2F)CC1,-26%,-24%
CCOC(=O)c1nnn(-c2nonc2N)c1-c1cccc2ccccc12,.,-29%
CCOC(=O)N1CCC(N2CCN(c3ccccc3)CC2)CC1,-13%,-4%
Oc1ccc2c3c1OC1C(O)CC[C@]4(O)C(C2)N(CC2CCC2)CC[C@]314 (some centres undefined),-18%,-5%
Cc1c(C(=O)NCc2cccc(F)c2)sc2ncnc(NCC3CCCO3)c12 (centres undefined),-9%,8%
CCN1CCN(c2ccc(S(=O)(=O)N3CCCCC3)cc2NC(=O)COc2ccc(Cl)c(C)c2)CC1,i,-28%
CNC(=S)N1CCn2cccc2C1c1cc(OC)c(OC)c(OC)c1 (centres undefined),17%,4%
COc1cccc(NC(=O)CSc2nc3c([nH]c4ccccc43)c(=O)n2C)c1,i,-13%
COc1ccc(OC)c([N+](=O)[O-])c1C(N)=O,-19%,3%
CCNC(=S)NNC(=O)Nc1ccccc1,-14%,2%
CCOC(=O)c1c(C)[nH]c(C(=O)Cn2c(=O)oc3ccccc32)c1C,.,-5%

# Next section; the last 5 above are carried over.
SMILES,VACV mCherry inh,Vaccinia Venus
CNC(=S)N1CCn2cccc2C1c1cc(OC)c(OC)c(OC)c1 (centres undefined),17%,4%
COc1cccc(NC(=O)CSc2nc3c([nH]c4ccccc43)c(=O)n2C)c1,i,-13%
COc1ccc(OC)c([N+](=O)[O-])c1C(N)=O,-19%,3%
CCNC(=S)NNC(=O)Nc1ccccc1,-14%,2%
CCOC(=O)c1c(C)[nH]c(C(=O)Cn2c(=O)oc3ccccc32)c1C,.,-5%
Cc1ccc(C(C(=O)NCc2ccc(F)cc2)N(C(=O)c2csnn2)C2CC2)cc1 (centres undefined),-17%,11%
O=C(Cc1cn(Cc2cccc(Cl)c2)c2ccccc12)N1CCCC1,-25%,-12%
COCC(=O)Nc1cc(C(=O)N2CCCCC2c2nccs2)c2c(c1)nc(-c1ccncc1)n2C (centres undefined),-11%,-3%
Cc1cc(C(=O)N/N=C/C=C/c2ccccc2)n[nH]1,i[7.34 µM],-5%[7.34 µM]
Cc1ccc(C)c2c1cc(C)c1nnc(SCC(=O)c3cccs3)n12,-7%,-28%
COc1ccc(N2CCN(C(=O)CCC(=O)N3CCOc4ccc(Cl)cc43)CC2)cc1,14µM*,?
O=C(CSc1n[nH]c(-c2ccccc2Cl)n1)NCCCc1ccccc1,-4%,-9%
CS(=O)(=O)N1CCC(C(=O)Nc2cc(C(F)(F)F)ccc2Cl)CC1,-10%,-5%
c1ccc(-n2cc(CNCCc3cscn3)c(-c3ccc4c(c3)OCO4)n2)cc1,-9%,-18%
O=C(c1[nH]c(C(F)(F)F)nc1-c1ccccc1)N1CCN(c2ncccc2C(F)(F)F)CC1,i,-21%
Cc1ccc(NC(=O)COc2ccc(Cl)cc2Cl)cc1S(=O)(=O)N1CCOCC1,-16%,?
CCCC/C=C/c1cccc2nncn12,-14%,-11%
COc1ccc(CCNC(=O)c2nnc(CS(=O)(=O)c3ccccc3)o2)cc1OC,i,-13%
O=C(c1ccc(F)cc1)n1nc(-c2ccccc2)nc1NCc1ccc(F)cc1,-13%,-8%
COc1ccc(Cl)cc1NC(=O)Nc1cccc([N+](=O)[O-])c1C,-24%[1.46 µM],-13%
CCN1CCCC1CNC(=O)c1cc(OC)c(OC)c(OC)c1 (centres undefined),-11%,-6%
C=CCCN(C(CC(C)C)C(=O)OC)S(=O)(=O)c1ccccc1Br (centres undefined),i,4%
O=C(CN(C(=O)c1csnn1)c1ccc(Cl)cc1)NCCc1ccccc1,-7%,-2%
CC[C@@]1(C(=O)OC)N[C@H](CN(C)S(=O)(=O)c2ccccc2)[C@@H]2C(=O)N(C)C(=O)[C@@H]21,i,1%
CC(=O)NC(CC(=O)Oc1ccc(C)cc1Br)c1ccccc1 (centres undefined),-17%,-10%
Cc1nn(-c2ccc(Cl)c(Cl)c2)c(C)c1C(=O)O,i,-11%
COc1cccc(-c2nn(-c3ccccc3)cc2C(=O)NCC(=O)O)c1,i,-10%
O=C(Nc1c2c(nn1-c1cccc(Cl)c1)CS(=O)C2)c1ccc2c(c1)OCO2 (centres undefined),-10%,-6%
COc1ccc(NS(=O)(=O)c2cccc(C(=O)OCC(=O)c3c(N)n(C)c(=O)n(C)c3=O)c2)cc1,-14%,-14%
Cc1cc(Cl)cc(Br)c1OCCNCC(C)O (centres undefined),-7%[1.46 µM],-22%

# (next part)
SMILES,VACV mCherry inh,Vaccinia Venus
Cc1sc(-n2cccc2)c(C(C)NC(=O)Nc2ccccc2Cl)c1C (centres undefined),-3%,0%
CC(=O)NC(Cc1cccc(C)c1)C(=O)NC1CCN(C(=O)c2ccc([N+](=O)[O-])cc2)CC1 (centres undefined),i,4%
O=C(NCc1ccccc1C(F)(F)F)C1CCC(=O)N(CCCc2ccccc2)C1 (centres undefined),-4%,-21%
Cc1ccc(NC(=O)CCNS(=O)(=O)c2ccc3c(c2)CCN3C(=O)C2CC2)c(Cl)c1,-8%,0%
Cc1c(Cl)ccc2sc(N3CCN(C(=O)C4CC4)CC3)nc12,-15%,-11%
Cc1ccc(-c2noc(CN(C(=O)c3ccc(C(C)(C)C)cc3)C(C)C)n2)cc1,6%,2%
COCCCN1C(=O)C(CC(=O)NC2CCCC2)CC(C(=O)N(C(C)C)C(C)C)=C1C (centres undefined),18%,-6%
O=C(Nc1ccc(F)cc1Cl)C1Cc2ccccc2N1C(=O)c1ccccc1 (centres undefined),-4%,2%
O=C(CCS(=O)(=O)c1ccc(Cl)cc1)Nc1cccc(S(=O)(=O)N2CCCCCC2)c1,?,-27%
COc1cc(/C=C/C(=O)O)ccc1OS(=O)(=O)c1ccc(C)cc1,i,-6%
COc1nc(OC/C(N)=N/O)nc(N2CCOCC2)n1,-12%,-6%
COC(=O)c1ccc(OC(=O)c2cccs2)cc1,-1%,-7%
CN1c2ccccc2-c2nc3ccccc3n2C1c1ccncc1 (centres undefined),-22%,-15%
CCc1ccccc1NC(=O)Cn1c(=O)n(-c2ccc(C)cc2)c(=O)c2c1c1cc(C)ccc1n2C,-11%,-2%
COc1ccc2c(c1)c(CC(=O)O)c(C)n2C(=O)c1ccc(Cl)cc1,-13%,?
Cc1ccc(S(=O)(=O)N(C)c2ccccc2C(=O)NC2CCCC2)cc1,-11%,-5%
COc1cc(C)nc(NS(=O)(=O)c2ccc(C)cc2)n1,.,-7%
S=c1[nH]c2ccccc2[nH]1,-22%,-4%
CN(Cc1ccccc1)S(=O)(=O)c1cccs1,-4%,2%
CC(=O)Nc1ccc(SC[C@H](Cc2ccccc2)N2CC[C@@H](N)CCC2=O)cc1,-7%,-4%
COc1ccccc1N(CC(=O)NCCSCc1ccccc1)S(=O)(=O)c1ccc(C)cc1,?,?
CCOc1ccc(NC(=O)c2ccc(OCC3CCCO3)cc2)cc1S(=O)(=O)N(CC)CC (centres undefined),-12%,-18%
COc1cc2c3c(c1OC)C1(C=CC(=O)C=C1)CC3N(C(=O)c1ccccc1)CC2 (centres undefined),-10%,-1%
Cc1ccc(S(=O)(=O)N2CCC(C)CC2)cc1C(=O)NCCN1CCOCC1,-16%,-16%
CC1CCN(C(=O)CSc2nnc(-c3cccs3)o2)CC1,-1%,8%

# Additional records.
SMILES,VACV mCherry inh,Vaccinia Venus
Cc1cccc(NC(=O)CCc2ccc(S(=O)(=O)NC3CCCCC3)cc2)c1,-13%,-13%
CCCCCCC(C)n1cc(C(C)=O)c(=O)n(C)c1=O (centres undefined),0%,4%
Cc1cc(C(=O)NNC(=S)NCc2ccccc2)cs1,-10%,-2%
CN(C(=O)COC(=O)Cc1ccc(Cl)cc1)C1CCCCC1,i,-12%
CC(C)(C)C(=O)NC(=S)NNC(=O)c1ccc(Cl)cc1Cl,?,-23%
CCC1C/C(=C/c2cccs2)C(=O)/C(=C/c2cccs2)C1 (centres undefined),-18%,-4%
CC1CC[C@@]2(OC1)OC1CC3C4CC[C@@H]5CC(O)CC[C@@]5(C)C4CC[C@]3(C)C1C2C (some centres undefined),-9%,-6%
CC(=O)c1ccc(NC(=O)c2nc3ccccc3nc2N2CCCCC2)cc1,3%,-5%
O=C1NC(=O)N(CCc2ccc(F)cc2)C(=O)/C1=C/c1ccco1,29%,37%[activator]
O=C(CSc1n[nH]c(-c2ccccn2)n1)Nc1ccccc1F,28µM*,?
COC(=O)c1cnc(N)s1,-13%,7%
O=C(COc1ccc(Cl)cc1Cl)NC1CCSC1=O (centres undefined),.,?
COc1ccc(C(=O)Nn2c(C3CCC3)nc3ccccc3c2=O)c(OC)c1,-4%,-11%
Cc1ccccc1CN1CCN(C2CCC2)CC1CCO (centres undefined),-10%,-11%
COc1ccccc1NS(=O)(=O)c1cc2c3c(c1)CCN3C(=O)CC2,i,-28%
COc1ccc([C@H]2C[C@H](O)[C@@H](n3cc(COC(=O)c4ccccc4)nn3)CN2C(=O)C2CCCCC2)cc1,12%,-15%
CCOc1ccc(N(CC(=O)NCc2ccc(C)cc2)S(=O)(=O)c2c(C)noc2C)cc1,2%,3%
COc1ccc(Cc2c(-c3ccccc3)nc3ccc(Cl)cn23)c(C)c1,3%,-1%
NC(=O)COC(=O)c1cccc(NS(=O)(=O)/C=C/c2ccccc2)c1,-8%,-7%
CCOc1ccc(NC(=O)C2CCN(S(=O)(=O)c3cccnc3)CC2)cc1,i,-19%
O=C(CCCc1ccccc1)N1CCc2ccccc21,i,0%
COCC(C)n1c(SCC(=O)NC2CCCCC2C)nc2ccccc2c1=O (centres undefined),-16%,-12%
O=C1OC(C(Cl)(Cl)Cl)Nc2ccccc21 (centres undefined),5%,5%
CN(C)S(=O)(=O)N(CC(=O)N1CCN(c2ccccc2)CC1)c1ccccc1,-2%,1%
COc1ccc(CCNc2c(N)n(Cc3ccccc3)c(=O)[nH]c2=O)cc1OC,.,-20%

# Remaining list, next part
SMILES,VACV mCherry inh,Vaccinia Venus
O=[N+]([O-])c1ccc(N(CC(O)CN2CCCCC2)S(=O)(=O)c2ccccc2)cc1 (centres undefined),-11%,5%
CCCc1nc(SCC(=O)NCc2ccco2)c2c(=O)n(C)c(=O)n(C)c2n1,-13%,-9%
CN1CCN(C(=O)C[C@@H]2C=C[C@H](NS(=O)(=O)c3cccc(F)c3)[C@@H](CO)O2)CC1,-6%,-8%
NC(=O)C[C@@H]1NC(=O)[C@H](CCC(=O)O)NC(=O)c2cc([N+](=O)[O-])cc(I)c2OCC[C@@H](C(N)=O)NC1=O,i,0%
CCOC(=O)C(=CNNc1ccsc1C(=O)OC)C(=O)OCC,-11%,-14%
O=C(COC(=O)c1ccccc1Nc1ccccc1)c1ccccc1,i,-11%
CCOC(=O)c1cccc(NC(=O)CCc2c(C)nn(-c3ccc(N4CCOCC4)nn3)c2C)c1,2%,-10%
NC(=O)Cn1nnc(-c2ccc(NC(=O)c3ccc(F)cc3)cc2)n1,i,-3%
CCOCCCNS(=O)(=O)c1ccc(OC)c(Cl)c1Cl,-5%,0%
COC(=O)[C@H](CC(C)C)NC(=O)CCc1nnc(COc2ccccc2)o1,-2%,-1%
C=CCn1ccc(=NC=C(C#N)C#N)c2ccccc21,-10%[7.34 µM],0%[7.34 µM]
COc1ccc(C(=O)OCC(=O)Nc2ccc3[nH]c(=O)[nH]c3c2)c(OC)c1OC,-4%,-1%
O=C(C1CCCN1S(=O)(=O)c1cccc2cccnc12)N1CCc2ccccc21 (centres undefined),2%,-17%
CCC(C(=O)Nc1nc(C)c(C)s1)c1ccccc1 (centres undefined),-14%,-15%
COc1ccc(/C=C(/C(=O)N2CCCCC2C(=O)O)c2ccc(OC)c(OC)c2)cc1 (centres undefined),-26%,-9%

# Record cards (already shown). Order of values: VACV mCherry inh | Vaccinia Venus
# `CN1CCN(C(=O)C[C@@H]2C=C[C@H](NS(=O)(=O)c3cccc(F)c3)[C@@H](CO)O2)CC1` across the screens: -6% | -8%
# `COc1ccc(C(=O)OCC(=O)Nc2ccc3[nH]c(=O)[nH]c3c2)c(OC)c1OC` across the screens: -4% | -1%
# `CCOC(=O)C(=CNNc1ccsc1C(=O)OC)C(=O)OCC` across the screens: -11% | -14%
# `CCC(C(=O)Nc1nc(C)c(C)s1)c1ccccc1` (centres undefined) across the screens: -14% | -15%
# `CCOCCCNS(=O)(=O)c1ccc(OC)c(Cl)c1Cl` across the screens: -5% | 0%
